Screens (PubChem BioAssay)
HSD17B inh = qHTS Assay for Inhibitors of HSD17B4, hydroxysteroid (17-beta) dehydrogenase 4; 3-hydroxyacyl-CoA dehydrogenase type-2 (Homo sapiens), Q99714; recombinant HSD17B10, NADH fluorescence kinetic; many of its hits are not listed in these tables; Potency, µM (series often up to 57.1 µM), inactives show top-dose activity change, negative = inhibition, usual class: inhibitors; hit rate 7.6% among 75,000; AID 893, 2007; active means well fitted inhibition curve with a large enough effect; inconclusive means small, poorly fitted or top-dose-only effect; inactive means no such curve, though single readings can be large or run the other way;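 further: the protocol describes HADH2 (HSD17B10) and not the HSD17B4 of the title; nearly all actives have a fitted effect of over 70% in size; most hits overshoot -100% by far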
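His-tagged E. coli-expressed HADH2 at 20 nM in 100 mM Tris-HCl pH 9.0 with 0.01 % Tween-20, preincubated 15 min with compound at room temperature. Reaction with 1 mM NAD+ and 90 uM beta-hydroxybutyryl coenzyme A; NADH fluorescence (360/450 nm) read kinetically over 4 min, last minus first point.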
Active calls of the source: *; i = inactive; ? = inconclusive; [ ] = remark or other dose. On the % scale 0 is the no-effect control and ±100 the full control effect; potency means the concentration at half of the fitted maximal effect. A portion of the library; count on the stated rates, not on these rows.

Molecule	HSD17B inh
c1ccc2[nH]c(SCc3cscn3)nc2c1	7%
Cc1cc(N2CCN(C)CC2)nc2ccc(NC(=O)CCC(=O)NCCC3=CCCCC3)cc12	?
O=[N+]([O-])c1ccc(C2=Nn3c(nnc3-c3ccc(Cl)cc3)SC2)o1	-10%[11.4 µM]
Cc1ccc(N2C(N)=C(C#N)C(c3cccnc3)C3=C2CC(C)(C)CC3=O)cc1 (stereo unspecified)	-7%
CN(C)C(=O)c1ccc(-c2cncnc2NCc2cccnc2)cc1	?
CCC1CCCCN1CCCNC(=O)CNC(=O)Cn1ccc2ccccc2c1=O (stereo unspecified)	3%
O=C(c1ccco1)N1CCC2(CC1)CCN(c1ccccc1)CC2	1%
CCC(C)(C(=O)NC1CCCCC1)N(Cc1ccco1)C(=O)CC1NC(=O)NC1=O (stereo unspecified)	-5%
O=C(c1cc2cc3ccc(Cl)cc3nc2o1)N1CCN(Cc2ccc3c(c2)OCO3)CC1	11%
COC(F)(C(=O)Nc1ccc2c(c1)C(=O)NC2=O)C(F)(F)F (stereo unspecified)	?
COc1cc(NC(=O)Nc2ccccc2)c(OC)cc1NC(=O)CN1CCCCC1	3%
COc1ncc2nc(C)c(=O)n(CCC#N)c2n1	-13%
CCC(=O)Nc1ccc(-c2nnc(SCC(=O)Nc3nccs3)n2C)cc1	4%
COc1ccccc1Nc1nc(C)cc(=O)[nH]1	11%
Cc1nnc(S(=O)(=O)c2ccc(N=Nc3c(N)nc(N)nc3N)cc2)s1	9%[11.4 µM]
COc1ccc(CNC(=O)Cn2nc(-c3ccc4c(c3)OCCO4)ccc2=O)cc1	i
O=C(O)CCc1ccc(-c2ccccc2)[nH]1	4µM*
O=C(C1=C(O)C(=O)N(c2ncccn2)C1c1cccs1)c1ccco1 (stereo unspecified)	?
CCC1Oc2ccccc2N(CC(=O)NCCC2=CCCCC2)C1=O (stereo unspecified)	1%
COC(=O)[C@H](Cc1ccccc1)NC(=O)NCC1CCCO1 (stereo partly specified)	4%

Reformatted as labelled records: 4 of the compounds above.
COc1ccccc1Nc1nc(C)cc(=O)[nH]1
  HSD17B inh: 11%
Cc1nnc(S(=O)(=O)c2ccc(N=Nc3c(N)nc(N)nc3N)cc2)s1
  HSD17B inh: 9%[11.4 µM]
COc1ccc(CNC(=O)Cn2nc(-c3ccc4c(c3)OCCO4)ccc2=O)cc1
  HSD17B inh: i
O=C(O)CCc1ccc(-c2ccccc2)[nH]1
  HSD17B inh: 4µM*

Later entries
Molecule	HSD17B inh
NC(Cc1c[nH]c2ccccc12)C(=O)NCC(=O)O (stereo unspecified)	-3%
O=C(CN1CCOCC1)NC1CC2CCC1C2 (stereo unspecified)	5%
Cc1cc(Cl)ccc1Nc1sc(C(=O)c2cc3cc(Cl)ccc3o2)c(N)c1C#N	6%[11.4 µM]
CCC/C=C(\CCC)C(NS(=O)(=O)c1ccc(-c2ccccc2)cc1)c1ccc(C(=O)OC)cc1 (stereo unspecified)	-12%
CC(=O)Nc1ccc(S(=O)(=O)N2CCC(c3nc4ccccc4[nH]3)CC2)cc1	-1%
CSc1nnc2c(n1)[nH]c1c(C)cccc12	-3%
CCCCn1cnc2sc3c(c2c1=N)CCCC3	1%
O=C(Cn1cnc2c(nnn2Cc2ccc(F)cc2)c1=O)N1CCN(c2ccccc2)CC1	4%
CCOC(=O)c1ccccc1NC(=O)Cn1cnc2c1c(=O)n(C)c(=O)n2C	-2%
CC(=O)C(Sc1nc(-c2ccco2)nc2c1c(=O)n(C)c(=O)n2C)C(=O)N(C)C (stereo unspecified)	-7%
COc1cccc(C2c3c(oc4ccc(Cl)cc4c3=O)C(=O)N2c2cc(C)on2)c1OC (stereo unspecified)	13%
COc1ccccc1CNS(=O)(=O)c1cccc(S(=O)(=O)N2CCOCC2)c1	0%
COc1ccccc1CN(Cc1cc2cc(C)cc(C)c2[nH]c1=O)Cc1nnnn1CC1CCCO1 (stereo unspecified)	-2%
Cc1c(/C(O)=C2/C(=O)C(=O)N(CCN3CCOCC3)C2c2ccco2)cnn1-c1ccccc1 (stereo unspecified)	-16%
O=C1OCc2ccc(NC(=O)C3CCCCC3)cc21	3%
O=C(NC(Cc1ccccc1)C(=O)O)c1ccccc1 (stereo unspecified)	9%
O=C1CCCCCN1CP(=O)(O)CCc1ccccc1	5%
S=c1[nH]c2ncccc2o1	-4%
CCCCN(C)C(=O)c1cn(C)c2ccc(S(=O)(=O)N(C)C)cc2c1=O	3%
CCC(C)NC(=O)CCS(=O)(=O)c1ccc2c(c1)n(C)c(=O)c(=O)n2C (stereo unspecified)	-5%

More entries follow:
Molecule	HSD17B inh
Cn1c(=O)c2c(nc(Oc3ccccn3)n2C)n(C)c1=O	7%
CCN=C1SC(C(=O)Nc2cccc(C(=O)O)c2)CC(=O)N1CC (stereo unspecified)	-1%
CC(=O)N1CCCc2cc(S(=O)(=O)N3CCN(c4ccccn4)CC3)ccc21	-18%
Cc1sc(CO)c(Sc2ccccc2)c1C(=O)O	-4%
O=C1NCC(CN(c2ccccc2)c2ccccc2)O1 (stereo unspecified)	?
CCCNC(=O)Cc1ncn[nH]1	9%
CCOC(=O)c1cc2sccc2n1CC(=O)Nc1ccc2c(c1)OCCO2	-1%
Cc1c(Cl)cccc1NC(=O)NC1CCCCC1	2%
COCCNC(=O)[C@H](C)/C=C/C(NC(=O)OCc1ccccc1)c1ccc(C(=O)OC)cc1 (stereo partly specified)	-8%
Nc1ccc(S(=O)(=O)Nc2ccc(Cl)nn2)cc1	-6%
CC1CCCCN1Cc1nc2c(c(=O)n(C)c(=O)n2C)n1CCc1ccccc1 (stereo unspecified)	19%
COc1ccccc1CNC(=O)CCN1C(=O)COc2ccc(C)cc21	-1%
Cc1ccc(-c2noc(CCC(=O)NC3CCCc4ccccc43)n2)cc1 (stereo unspecified)	7%
COC(=O)[C@@]1(Cc2ccccc2)[C@H]2c3cc(C(=O)N(C)C)n(Cc4ccc(OC)c(OC)c4)c3C[C@H]2CN1C(=O)c1ccccc1	12%
O=S(=O)(NCc1ccncc1)c1ccc(Br)s1	8%
Cc1cc(C)cc(Nc2ccc(C(=O)O)cc2N)c1	32µM*
Fc1ccccc1CSc1nnnn1-c1ccc2c(c1)OCO2	-13%
COc1ccc(-c2nnc(SCC(=O)N3CCOCC3)o2)cc1OC	2%
Cc1cccc(NC(=O)c2cc(NC(=O)c3ccco3)ccc2N2CCCCC2)c1	13µM*
COCCN(CCOC)S(=O)(=O)c1ccc(C(=O)NCCCN2CCOCC2)cc1	13%

Continued.
Molecule	HSD17B inh
CCn1cc(C(=O)O)c(=O)c2cnc(N3CCN(C(=O)Nc4cccc5ccccc45)CC3)nc21	25µM*
Cn1c(=O)c2c(nc(CN3CCC(C(N)=O)CC3)n2Cc2c(Cl)cccc2Cl)n(C)c1=O	4%
Cn1cccc1C(=O)N1CCC[C@@]2(CCN(Cc3ccccc3)C2)C1	0%
CCn1cc(C2=NC(C(C)C)CO2)c2ccccc21 (stereo unspecified)	-1%
CCCC(C(=O)NCc1ccc(OC)cc1)N(Cc1ccco1)C(=O)c1snc(C(N)=O)c1N (stereo unspecified)	?
CSc1nsc(SC)c1C(=O)N1CCN(S(=O)(=O)c2ccc(C)cc2)C1C (stereo unspecified)	-13%
O=C(NCCc1csc(-c2ccccc2)n1)c1cccs1	?
CCc1cccc(C)c1NC(=O)CN1C(=O)c2ccccc2S1(=O)=O	4%
CCCS(=O)(=O)c1nc(S(=O)(=O)c2ccc(C)cc2)c(NCCN2CCOCC2)s1	-6%
Cc1ccc(C(C(=O)NC2CCCC2)N(C(=O)c2csnn2)C2CCCC2)o1 (stereo unspecified)	1%
CN1/C(=C/C(=O)c2nc(S(C)(=O)=O)ncc2Cl)C(C)(C)c2ccccc21	-21%
CC1CCN(C(=O)CSc2ccc3nnc(-c4cccc(F)c4)n3n2)CC1	-12%
c1ccc(N2CCN(c3ncnc4scc(-c5cccs5)c34)CC2)cc1	14%
O=C1C[C@H]2C(=O)[C@@H]1[C@@H](C(=O)O)[C@H]2C(=O)O	-2%[11.4 µM]
O=C(NCCCN1CCOCC1)c1cc2c(s1)CCCC2	14%
COC(=O)C/C=C\[C@@H](C)[C@@H](/C=N\O[C@@H](C)CN1CCCCc2nc(C)c(C)cc21)OC	3%[11.4 µM]
COc1ccc(-c2c(C#N)c(SCc3c(C)noc3C)nc3c2C(=O)CC(C)(C)C3)cc1	1%
COc1ccccc1CNCc1cccs1	-1%
CC(=O)C[C@H](O)[C@@H](NC(=O)OC(C)(C)C)C(C)C	5%[11.4 µM]
Cc1cc(C)c2cc(CN(CC3CCCO3)S(=O)(=O)c3ccc4c(c3)OCCO4)c(=O)[nH]c2c1 (stereo unspecified)	10%

Shown as labelled records: entries from further up
mol: CCCC(C(=O)NCc1ccc(OC)cc1)N(Cc1ccco1)C(=O)c1snc(C(N)=O)c1N (stereo unspecified)
  HSD17B inh = ?

mol: O=C(NCCCN1CCOCC1)c1cc2c(s1)CCCC2
  HSD17B inh = 14%

Further records.
Molecule	HSD17B inh
COc1ccc2[nH]c(=O)c(CN(CCO)S(=O)(=O)c3ccc4c(c3)OCCO4)cc2c1	25µM*
CCc1ccc(Nc2oc(C)cc(=O)c2C(C)=O)cc1	7%
CC(C)OC(=O)CSc1nnc(-c2ccc(C(C)(C)C)cc2)n1N	7%
Cc1c(Br)cc(C(=O)NCc2ccco2)c(C)c1C	-23%
Cn1c(CCN2CCN(c3ccc(F)cc3)CC2)nc2cc(NC(=O)c3ccco3)ccc21	3%
CCc1cc(N2CCOCC2)cc2c1[nH]c1ccccc12	32µM*
O=C(CSc1nnc(-c2cccnc2)n1-c1ccccc1)NCc1ccc2c(c1)OCO2	1%
COc1cccc2cc(C(=O)N3CCN(C(=O)c4ccco4)CC3)c(=O)oc12	?
CCOC(=O)c1c(NC(=O)CSc2nnc(-c3cccnc3)o2)sc(C(C)=O)c1C	-7%
Cc1cc(NC(=O)CN2CCN(c3ccccc3O)CC2)no1	11%
Cc1noc(C)c1C(=O)N1CCC2(CC1)CCN(c1ccccn1)CC2	25µM*
COc1cc2c(cc1OC)C(C(=O)NC1CC1)C1c3ccccc3CCN1C2=O (stereo unspecified)	5%
COc1ccc(CNC(=O)c2ccc(N3CCCC3=O)cc2)cc1	-5%
CC(C)COC(=O)c1cc(-c2ccc(/C=N/n3cnnc3)o2)ccc1Cl	-20%
Cc1ccc(NC(=O)c2ccccc2O)cc1	?
COc1ccc(C(c2nnnn2C2CCCC2)N2CCc3ccccc3C2)cc1OC (stereo unspecified)	-4%
CCCNc1nc2c(c(=O)[nH]c(=O)n2C)n1CCC(C)C	8%
O=c1[nH]c2ccccc2n1CCCN1CCN(C(c2ccccc2)c2ccccc2)CC1	-8%
Cc1c(NC(=O)C(C#N)=C2CCCCC2)c(=O)n(-c2ccccc2)n1C	1%
O=C(CSc1nnc(-c2cccs2)n1-c1ccccc1)c1ccc2c(c1)OCCO2	11%

Carrying on:
Molecule	HSD17B inh
COc1ccc(OC)c(S(=O)(=O)NC2CCN(Cc3ccccc3)CC2)c1	5%
CCC1Oc2ccc(C)cc2N(CC(=O)NCCCN2CCCCC2CC)C1=O (stereo unspecified)	7%
COC(=O)c1c(C(=O)OC)c2n(c1C)Cc1ccccc1C2	-4%
CCC1=C(OC(=O)N(CC)CC)N2C(=O)OC(=NCc3ccccc3)[C@]2(C)[C@H]2C1=CC[C@H]1C(=O)N(CC(=O)OC)C(=O)[C@H]12	-9%
CCN1CSC(=S)N(Cc2ccc(OC)cc2)C1	-5%
Cc1nc(NC2=NCN(CCc3ccccc3)CN2)nc2ccccc12	5%
CCN(CC)CCn1c(NCc2cccc(OC)c2)nc2ccccc21	1%
O=C(CCNC(=O)c1ccc(Br)o1)NCc1ccc(Cl)cc1	2%
CCC1Oc2ccc(C)cc2N(CC(=O)NCCCN2CCN(Cc3ccccc3)CC2)C1=O (stereo unspecified)	9%
COc1ccccc1C1SCCN1S(=O)(=O)c1cccc(C(F)(F)F)c1 (stereo unspecified)	-11%
O=C(Nc1c(C(=O)N2CCCCC2)cnn1-c1ccccc1)c1ccco1	7%
Cc1cccc(Cn2c(NCC(C)O)nc3c2c(=O)n(C)c(=O)n3C)c1 (stereo unspecified)	9%
O=C(COc1ccc(Cl)cc1)NCc1nnc(SCC(=O)NC2CCCCC2)o1	0%
Cn1cccc1C(=O)N1CCC[C@@]2(CCN(c3ncccn3)C2)C1	-10%
Cn1nc(C(=O)Nc2cccnc2)c2ccccc2c1=O	2%
Cc1cc(C)nc(N2CCCC(C(=O)NCc3cccc(C(F)(F)F)c3)C2)n1 (stereo unspecified)	-8%
COc1ccc2[nH]c3c(c2c1)CCn1c-3nc2ccccc2c1=O	14%
